Biofilm kill mix: mixtures killing C. albicans biofilm; 120,000 tested, 0.02% active; C. albicans biofilm persisters + clotrimazole, fluorescence viability; primary screen in compound mixtures of four per well; inhibition, % at 7.6 µM;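 active means inhibition above 30.3% in the primary screen of four-compound pools, then above 30% when the compound was retested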;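 further: compounds exposed to preformed 24 h biofilms for 48 h; the number belongs to the whole pool; some results filed as inactive read as strong as hits; inactives centre near 12; 0% = biofilm with clotrimazole alone and 100% = kill control; retested singly at about 60 µM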
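Test system: C. albicans biofilms. Buffer or medium: RPMI/MOPS medium, pH 7.0. Timing: 48 h compound exposure at 37 °C. Technique: Alamar Blue fluorescence. Evaluation: percent inhibition of biofilm viability.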
Starred values were filed as active, the others as inactive. This is a subset; the hit share may differ from the screen's.

SMILES	Biofilm kill mix
CN(C)/N=C/c1cn(-c2ccccc2)nc1-c1cccnc1	18
COCCNC(=O)c1ccc2c3n(nc2c1)-c1ccccc1CO3	15
S=c1[nH]nc(-c2ccc(Br)cc2)n1Cc1ccccc1	5
O=C(NNC(=O)c1cccc(Br)c1)C(=O)N1CCCCC1	7
COc1ccc(-c2cc(C(F)F)n3ncc(C(=O)Nc4cccc(S(=O)(=O)N5CCOCC5)c4)c3n2)cc1	16
COc1ccc(C(=O)/C(C#N)=N/Nc2cccc([N+](=O)[O-])c2)cc1	12
CCC(C)n1c(SCC(=O)/C(C#N)=C(\C)N)nc2ccccc2c1=O (stereo unspecified)	14
COc1ccc(-n2c3c(cc(C(=O)NNc4ccccc4C)c2=O)C(=O)CC(C)(C)C3)cc1	18
CC(C)(C)c1ccc(-c2noc(-c3ccc4c(c3)CCO4)n2)cc1	15
O=C(COc1cccc2c1CCN(Cc1ccccc1)C2=O)N1CCCCC1	0
CCCCN1C(=S)NC[C@@H]1Cc1cccc2ccccc12	6
C/C(=N/NS(=O)(=O)c1ccccc1)c1ccc(NC(=O)C(F)(F)F)cc1	1
Cc1ccc(S(=O)(=O)N(Cc2cc3cccc(C)c3[nH]c2=O)c2ccccc2)cc1	21
CN(CC(O)CON=C1c2ccccc2-c2ccccc21)S(=O)(=O)c1ccc(Br)cc1 (stereo unspecified)	11
CNC(=S)Nc1cccc(C(=O)OC)c1	14
CCn1cc(C(=O)O)c(=O)c2cc(F)c(N3CCN(C(=S)NC(=O)c4ccccc4C)CC3)cc21	23
COc1ccc(NC(=S)N/N=C/c2cccn2Cc2ccccc2F)cc1	7
COc1ccc(CCNC(=O)CCNC(=O)c2ccc(Br)cc2)cc1OC	10
CC(=O)Nc1sc(C)c(C)c1C(=O)OC(C)C	5
Cc1nn(C)cc1C(C(=O)NC1CCCCC1)N(Cc1ccc(F)cc1)C(=O)c1cnccn1 (stereo unspecified)	11
COc1ccc(CNC(=O)N[C@@H](CC(C)C)C(=O)O)cc1OC	25
COc1ccc(-c2[nH]ncc2CN2CCCO2)c(F)c1	12
Cc1ccc(-c2ccc(/C=C(\C#N)C(N)=S)n2C)cc1	23
CC(=O)NC(Cc1ccccc1)C(=O)OCC(=O)c1ccc(F)cc1 (stereo unspecified)	12
Cc1cccc(C)c1OCCNC(=O)OCc1ccccc1	20
S=C1CCC(c2ccc(Br)cc2)=NN1c1ccccc1	4
CCCCCC(=O)Nc1cccc2ccccc12	12
CCc1ccccc1Nc1nc(N)nc(CSCC(=O)Nc2ccc(C)c(C)c2)n1	6
CC(=O)Nc1ccc(NS(=O)(=O)c2cc([N+](=O)[O-])ccc2C)cc1	35
OCCC1CN(Cc2cccc3nonc23)CCN1Cc1ccsc1 (stereo unspecified)	23
Nc1ccccc1SC(C[N+](=O)[O-])c1ccccc1 (stereo unspecified)	3
NS(=O)(=O)c1cccc(NC(=O)c2cncc(Br)c2)c1	19
COc1ccc(Br)cc1C(=O)Nc1ccc(C(=O)NCC(C)C)cc1	-5
CCC(=O)Nc1cc(=O)[nH]c2nc(-c3ccc(Cl)cc3)nn12	24
Cc1ccc(-c2sc(-c3ccccc3)nc2CC(=O)Nc2ccccc2F)cc1	9
CCN(CC)S(=O)(=O)c1ccc(N2CCCC2)c(NS(=O)(=O)c2ccc([N+](=O)[O-])cc2)c1	10
CC(C)N1CCN(C2CSCCSC2)CC1CCO (stereo unspecified)	21
CCCN1C(=O)C2(C(C(=O)c3ccc(C)o3)=C(O)C(=O)N2CCCOC)c2ccccc21 (stereo unspecified)	19
Cc1ccc(/C=N/NC(=O)c2nnn(-c3nonc3N)c2CSc2ccccc2)cc1	7
COCC(=O)Nc1ccc(C(=O)Nc2ccccc2Cl)cc1	4
Cc1ccc(C2=NN(C(=O)c3cccs3)C(c3ccccc3O)C2)cc1 (stereo unspecified)	6
O=C(Cn1ccc(C(F)(F)F)n1)Nc1cccc(S(=O)(=O)N2CCCCC2)c1	3
C[C@]12C[C@H](O)[C@H]3[C@@H](CCC4=CC(=O)CC[C@@]43C)[C@@H]1CC[C@@H]2C(=O)CO	12
CC1=CS(=O)(=O)CC1Sc1nc(C)n[nH]1 (stereo unspecified)	4
CCOc1ccc2nnc(-c3ccc(Br)cc3)n2n1	15
CC1CCc2c(sc(NS(=O)(=O)c3ccccc3)c2C(=O)OC(C)C)C1 (stereo unspecified)	5
O=C(COc1cccc(NC(=O)c2ccccc2)c1)c1ccccc1	7
O=C(NNC(=O)C1CC1c1ccccc1)c1ccccc1F (stereo unspecified)	9
CCSc1nnc(NC(=O)c2ccc(S(=O)(=O)N(C)C)cc2)s1	13
CCCS(=O)(=O)C/C(N)=N/OC(=O)c1ccccc1Cl	9
COc1ccccc1NS(=O)(=O)c1cccc2nsnc12	-6
COc1ccc(S(=O)(=O)NCCSc2ccc(Cl)cc2)cc1OC	13
Cc1cc(C)c(NC(=O)c2oc3ccccc3c2COc2ccccc2)c(C)c1	2
C/C(=N\NC(=S)NCc1ccccc1)c1ccc(Cl)cc1	8
O=C(NC1CCCc2c1cnn2-c1ccc(F)cc1F)c1ccccn1 (stereo unspecified)	20
CC1(C)CC(=O)C(C(C2=C(O)CC(C)(C)CC2=O)c2ccc(Cl)c([N+](=O)[O-])c2)C(=O)C1 (stereo unspecified)	14
COc1ccc(N(CC(=O)O)S(=O)(=O)c2ccccc2[N+](=O)[O-])c(OC)c1	0
COc1ccccc1N1C(=O)C2ON(c3ccccc3)C(c3ccc(N(C)C)cc3)C2C1=O (stereo unspecified)	7
COc1ccc(/C(C)=N/OC/C(O)=C(\C#N)c2nc3ccccc3[nH]2)c(OC)c1	13
N#C/C(=C(/O)c1ccc([N+](=O)[O-])cc1)c1nnc2n1CCCCC2	11

Continued.
SMILES	Biofilm kill mix
COc1cc(C(=O)NC(=S)Nc2ccc([N+](=O)[O-])cc2C)cc(OC)c1OC	16
Cc1nn(-c2ccccc2)c(N2CCCC2)c1/C=N/NC(=O)c1cc(-c2ccccc2)nc2ccccc12	17
COc1ccc(-n2c(C)cc(C(=O)CN3CCC(C)CC3)c2C)cc1	6
O=C(Cc1cnc2ncnn2c1)N1CCc2c([nH]c3ccccc23)C1c1ccccn1 (stereo unspecified)	24
Cc1cnc(C(=O)N2CCCC(C(=O)c3ccc(Cl)cc3C)C2)cn1 (stereo unspecified)	14
Cc1ccc(C(=O)NC(=S)NCc2cccnc2)cc1	13
O=c1c2cc3c(nc2[nH]c(=S)n1-c1ccccc1)CCCC3	30
CCn1c(/C=C/c2c(C)n(CC)c3ccccc23)nc2ccccc2c1=O	17
CCOC(=O)c1c(-c2ccc(C)cc2)csc1NC(=O)c1ccc(N2C(=O)CCC2=O)cc1	9
C=CCNC(=O)/C(=C/c1cccc([N+](=O)[O-])c1)NC(=O)c1ccco1	13
CC(C)N1CCN(Cc2ccc(OCc3ccccc3)cc2)CC1CCO (stereo unspecified)	23
CC(NCc1ccc(OCc2ccc(Cl)cc2)cc1)C(O)c1ccccc1 (stereo unspecified)	-4
O=C(c1cnc2ccc(Cl)cc2c1Cl)N1CCOCC1	10
Cc1cs/c(=N\N=C\c2ccc(O)cc2)n1Cc1ccco1	14
Cc1ccc(N2CCCn3c2cc(C)c(C#N)c3=O)cc1C	10
CCSc1nc(CC)c2c(c1C#N)CCCC2	13
Cc1ccc(OCCn2cccn2)c(C)c1	-3
O=C(NNC(=S)NC1CCCCC1)c1ccccc1Cl	13
O=C(Oc1ccc(N(Cc2cccs2)C2=NS(=O)(=O)c3ccccc32)cc1)c1ccccc1Cl	4
CCCCC(CC)CNC(=O)C(=O)c1ccccc1NC(C)=O (stereo unspecified)	4
O=C(CSc1nc2nc3c(cc2c(=O)n1-c1ccccc1)CCCC3)Nc1ccccc1	5
CC(=O)/C(N=Nc1cccc(C(F)(F)F)c1)=C(\C)O	6
COc1ccc(CNC(=O)CCN2C(=O)c3ccncc3C2=O)cc1OC	17
COc1ccc(/C=N/NC(=O)C(C)n2cnc3ccccc3c2=O)cc1 (stereo unspecified)	4
CCc1ccccc1NC(=S)N(CCN(C)C)C(C)c1cccnc1 (stereo unspecified)	15
CCc1ccc(CN2C(=O)c3ccccc3C2C(=O)NCc2cccnc2)cc1 (stereo unspecified)	27
Cc1ccc(Nc2nc(C(=O)NCC3CCCO3)cs2)cc1 (stereo unspecified)	18
Cc1ccccc1C(OCCN(C)C)C1CCCCC1 (stereo unspecified)	5
CCCOc1cccc(NC(=O)OC2CCN(C)CC2)c1	13
CCCCN(C(=O)Cn1nnc2ccccc21)C(C(=O)NCCOC)c1ccc(OC)cc1OC (stereo unspecified)	9
CCCCC[C@H](O)/C=C/[C@@H]1[C@@H](CCCCCCC(=O)O)[C@@H](O)C[C@H]1O	9
COc1cc(-c2nc3ccccn3c2/N=C/c2cccc(OC)c2O)ccc1O	18
C=CCN1C(=O)C(CC(=O)Nc2ccccc2)N(Cc2ccccn2)C1=S (stereo unspecified)	17
NC(=O)Cc1ccc(C(=O)c2ccccc2)s1	8
O=C(CSCc1nc2c(nnn2Cc2ccc(F)cc2)c(=O)[nH]1)Nc1cccc(C(F)(F)F)c1	9
CC1(C)Oc2ccc3ccc(=O)oc3c2C[C@H]1O	14
O=C(Nc1ccccc1N1CCOCC1)c1cc(Br)c(Br)s1	7
COc1ccc(C(=O)NCc2ccc3c(c2)cc(C)n3C)cc1OC	8
CCCn1cc(CN2CCCC(C(=O)c3cccc(OC(C)C)c3)C2)c(C)n1 (stereo unspecified)	3
COc1ccc(C(=O)Nc2ccc(S(=O)(=O)Nc3onc(C)c3C)cc2)c(OC)c1	22
Cc1ccccc1COc1ccc2oc(C)c(C(=O)O)c2c1	22
CNC(=O)COc1cccc(C(=O)NCc2ccccc2)c1	11
C[C@@H](C(=O)N1CCN(C(=O)OC(C)(C)C)CC1)n1cc(-c2cn([C@@H](C)C(=O)N3CCN(C(=O)OC(C)(C)C)CC3)nn2)nn1	19
CCOC(=O)Cn1nc(C)c([N+](=O)[O-])c1C	6
Cc1ccc(CSCCNC(=O)c2ccc(C)cc2)cc1	10
CCNC(=O)CC1C(=O)N(c2ccc(F)cc2)C(=S)N1CCc1ccncc1 (stereo unspecified)	19
Cc1c(Cl)cnc(NC(=O)COC(=O)c2ccc(S(=O)(=O)NCc3ccco3)cc2)c1Cl	11
Cn1nnnc1SCC(=O)NCc1cc([N+](=O)[O-])ccc1O	13
O=C(COC(=O)C1CC(=O)N(Cc2ccccc2)C1)Nc1ccccc1F (stereo unspecified)	-8
CCCCCCCCCC(=O)NNC(=O)c1c(O)c2ccccc2n(CC)c1=O	6
O=C(Nc1cccc(Cl)c1Cl)c1cc(S(=O)(=O)NCCc2ccccc2)ccc1F	6
O=C(COC(=O)Cn1cnc2ccccc21)Nc1cccc(S(=O)(=O)N2CCOCC2)c1	16
CC(=O)c1ccc(-c2cccs2)s1	26
CC(C)CSc1nc2ccccc2[nH]1	7
Cc1cc(N(C)C)ccc1[N+](=O)[O-]	14
S=C(NCCCc1ccccc1)Nc1ccccc1Cl	-14
O=C1CC(=O)N2N=C(c3ccc([N+](=O)[O-])cc3)SC2=N1	3
COc1cccc(N2C(C(C)=O)=NN(c3ccccc3)C2c2ccc(N3CCOCC3)cc2)c1 (stereo unspecified)	9
COc1ccccc1N1CCN(C(=O)Nc2ccc([N+](=O)[O-])cc2)CC1	14
CCOC(=O)c1cnc(SC)nc1N1CCCC1	10

Next records follow.
SMILES	Biofilm kill mix
Cc1cc(C)c2nc(NNC(=O)c3ccc(S(=O)(=O)N4CCc5ccccc5C4)cc3)sc2c1	16
COc1cc(/C=N/NC(=O)c2ccncc2)ccc1Oc1ccc([N+](=O)[O-])cn1	7
COC(=O)c1ccc(NC(=S)NC2CCCCC2C)cc1 (stereo unspecified)	12
O=C(OCc1nc2scc(-c3ccccc3)c2c(=O)[nH]1)c1cc([N+](=O)[O-])ccc1Cl	14
CC(=O)N(C)c1ccc(NC(=O)C(F)(F)F)cc1	12
CN(C)c1ccc([N+](=O)[O-])cc1C(=O)O	10
CC(C)(C)c1ccc(OCC(=O)N2CCCCCC2)c(Br)c1	-3

Among those listed so far, these have a nitro group on carbon:
SMILES	Biofilm kill mix
COc1ccc(C(=O)/C(C#N)=N/Nc2cccc([N+](=O)[O-])c2)cc1	12
CC(=O)Nc1ccc(NS(=O)(=O)c2cc([N+](=O)[O-])ccc2C)cc1	35
Nc1ccccc1SC(C[N+](=O)[O-])c1ccccc1 (stereo unspecified)	3
CCN(CC)S(=O)(=O)c1ccc(N2CCCC2)c(NS(=O)(=O)c2ccc([N+](=O)[O-])cc2)c1	10
CC1(C)CC(=O)C(C(C2=C(O)CC(C)(C)CC2=O)c2ccc(Cl)c([N+](=O)[O-])c2)C(=O)C1 (stereo unspecified)	14
COc1ccc(N(CC(=O)O)S(=O)(=O)c2ccccc2[N+](=O)[O-])c(OC)c1	0
N#C/C(=C(/O)c1ccc([N+](=O)[O-])cc1)c1nnc2n1CCCCC2	11
COc1cc(C(=O)NC(=S)Nc2ccc([N+](=O)[O-])cc2C)cc(OC)c1OC	16
C=CCNC(=O)/C(=C/c1cccc([N+](=O)[O-])c1)NC(=O)c1ccco1	13
CCOC(=O)Cn1nc(C)c([N+](=O)[O-])c1C	6
Cn1nnnc1SCC(=O)NCc1cc([N+](=O)[O-])ccc1O	13
Cc1cc(N(C)C)ccc1[N+](=O)[O-]	14
O=C1CC(=O)N2N=C(c3ccc([N+](=O)[O-])cc3)SC2=N1	3
COc1ccccc1N1CCN(C(=O)Nc2ccc([N+](=O)[O-])cc2)CC1	14
COc1cc(/C=N/NC(=O)c2ccncc2)ccc1Oc1ccc([N+](=O)[O-])cn1	7
O=C(OCc1nc2scc(-c3ccccc3)c2c(=O)[nH]1)c1cc([N+](=O)[O-])ccc1Cl	14
CN(C)c1ccc([N+](=O)[O-])cc1C(=O)O	10
